gsp antagonist – gsp mutant antagonism. gsp-mutant cells, cAMP HTRF, 30 min; control for the full effect not named in the record. Potency, µM (series often up to 76.9 µM), for inactives: at the top dose activity change, negative = inhibition, actives largely listed as inhibitors. 0.4% of 340,000 active. AID 624288; active = falling curve of any shape with a large fitted effect; inconclusive = falling curve, mostly with a smaller effect; inactive = flat or rising curve; cell line not stated here;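 note: intracellular cAMP measured with PDE inhibitor Ro 20-1724 present during compound exposure; potency is the fitted concentration of half-maximal effect; % is set by controls: 0 for no effect and ±100 for the full control effect; nearly all actives have a fitted effect of over 65% in size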
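HTRF cAMP measurement after 30 min RT detection following 30 min, 37C compound treatment alongside […] (added as 300 uM solution) in G418-selected cells seeded at 2000/well and grown 16–24 h.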
gsp agonist – agonists of gsp mutant (McCune-Albright syndrome); gsp mutant cells, cAMP HTRF, 30 min; control for the full effect not named in the record; 0.13% of 340,000 active; AID 624287; Potency, µM (top dose mostly 76.9 µM), without a hit: at the highest dose activation (cAMP increase), actives largely listed as activators; active = well fitted activation curve with a large enough effect; inconclusive = small, poorly fitted or top-dose-only effect, or another doubt; inactive = no such curve, though single readings can be large or run the other way; cell line not stated here;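 note: phosphodiesterase inhibitor Ro 20-1724 added with compounds to block cAMP breakdown; potency is the fitted concentration of half-maximal effect; nearly all actives have a fitted effect of over 60% in size; about a fifth of the inactives were tested at one dose only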
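Cells stably selected in G418 were plated at 2000/well, grown 16-24 hr, then given compounds in DMSO with the PDE inhibitor […] (300 uM solution added) for 30 min at 37C; cAMP was read by HTRF.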
TRPML1 inh – human mucolipin-1 channel inhibition. TRPML1-inducible cells, Ca2+ dye fluorescence, FDSS; stronger effect = lower value; inhibition of EC80 agonist-evoked calcium signal. Q9GZU1. activity change, negative = inhibition, % (concentration not given with the values). 0.02% of 390,000 active; in the data active means activity change below about -50%; inconclusive means about -30% to -50%; inactive means above about -30%;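 note: stimulus is agonist 54-4 at its EC80 concentration; % is set by controls: 0 for no effect and ±100 for the full control effect; compound concentration not given in the record; the text of the record puts the active cut at -80%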
Target sequence (Q9GZU1 whole entry, looked up): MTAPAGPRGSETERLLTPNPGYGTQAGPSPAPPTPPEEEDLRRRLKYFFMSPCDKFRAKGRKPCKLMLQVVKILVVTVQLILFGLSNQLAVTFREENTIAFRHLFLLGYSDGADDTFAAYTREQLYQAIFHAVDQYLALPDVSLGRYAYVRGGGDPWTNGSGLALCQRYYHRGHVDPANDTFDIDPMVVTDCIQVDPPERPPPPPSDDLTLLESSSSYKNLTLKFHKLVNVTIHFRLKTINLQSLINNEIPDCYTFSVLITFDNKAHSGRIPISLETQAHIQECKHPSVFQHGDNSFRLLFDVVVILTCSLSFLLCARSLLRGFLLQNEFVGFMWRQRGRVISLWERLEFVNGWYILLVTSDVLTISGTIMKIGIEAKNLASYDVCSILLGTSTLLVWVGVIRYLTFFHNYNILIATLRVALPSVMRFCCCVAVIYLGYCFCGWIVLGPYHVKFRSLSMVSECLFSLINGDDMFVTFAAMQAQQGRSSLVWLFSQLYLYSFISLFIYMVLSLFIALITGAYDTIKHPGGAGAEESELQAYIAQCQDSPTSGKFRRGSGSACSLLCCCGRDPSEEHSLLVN
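Calcium fluorescence in TRPML1-DL cells induced overnight with Tet: a 110 s read after compound pin addition, then a 110 s antagonist read after challenge with 54-4 at 4 uM final (EC80).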
TRPML1 agonist – activates the human TRPML1 channel; Q9GZU1; TRPML1-expressing cells, Ca2+ dye fluorescence, FDSS; host cell line not named in the record; reference of the full effect not given here; activation, % (test concentration not listed); 0.12% of 410,000 active; in the data active = activation above about 50%; inconclusive = about 30% to 50%; inactive = below about 30%; note: 0% is about no effect; the text of the record puts the active cut at 80%
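Agonist activity was taken from a 110 s kinetic Ca2+ dye read on the FDSS after pinning compounds onto TRPML1-DL cells. The cells were seeded at 1,500/well with Tet inducer, incubated about 16 h, then dye-loaded at room temperature.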
Menin-MLL FL inh – displaces fluorescein MLL peptide from human menin; Fluorescence polarization, fluorescein-MLL peptide displacement from menin; FP activity change, % at 61.4 µM; 290,000 tested, under 10 active; AID 1766; inconclusive = falling polarisation curve, or a change in total fluorescence; inactive = total fluorescence flat and polarisation flat or rising; no compound was filed as active; the % refers to the polarisation; negative = inhibition;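 note: % of control where 0% means no effect; inhibitors lower the polarisation; unlabelled MLL peptide was the positive control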
ClpP mod – qHTS Assay for Activators of ClpP | AID 651965, 2013 | ATP-dependent Clp protease proteolytic subunit (Bacillus subtilis (strain 168)), P80244 | Potency, µM (top dose mostly 57.5 µM), for the others: top-dose activity change, negative = active | 1.9% of 340,000 active | purified B. subtilis ClpP, FRET peptide cleavage, 20 min; active = well fitted falling curve with a large enough effect; inconclusive = small, poorly fitted or top-dose-only effect; inactive = no such curve, though single readings can be large or run the other way; note: potency is the fitted concentration of half-maximal effect; the source files actives as falling curves though it sought activators and does not explain the sign; nearly all actives have a fitted effect of over 65% in size; many hits overshoot -100%
Target sequence (P80244 whole entry, looked up): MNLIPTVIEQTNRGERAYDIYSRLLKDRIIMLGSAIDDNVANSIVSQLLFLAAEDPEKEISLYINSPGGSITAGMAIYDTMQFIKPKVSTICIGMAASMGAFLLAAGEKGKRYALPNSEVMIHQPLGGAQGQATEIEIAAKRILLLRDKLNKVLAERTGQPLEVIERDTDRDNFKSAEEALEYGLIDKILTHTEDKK
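ClpP 10 microg/mL final, pH 8 Tris/KCl buffer with BSA, glycerol, Tween-20; compound pinned in; FRET-FV substrate; RT 20 min; Ex320/Em430; ΔFRET vs ADEP 5.8 microM, DMSO, no enzyme.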
* = called active by the depositor; u = inconclusive; x = not tested or not shown; & = joins results of further samples; [ ] = another dose, or the depositor's remark. Outcome played no part in choosing rows; overall some 2.1% were active at least once.

item	compound	gsp antagonist	gsp agonist	TRPML1 inh	TRPML1 agonist	Menin-MLL FL inh	ClpP mod
1	CCc1ccc(N(C(=O)CNC(=O)c2ccco2)C(C(=O)NC2CCCC2)c2cccnc2)cc1 (stereo not drawn)	2%	-8%[15.4 µM]	5	-0.8	-3.1	0.9%
2	Fc1ccc(C2CCCN2Cc2nc(CC3CC3)no2)cc1 (stereo not drawn)	11%	7%	-14	0.1	-6.2	0.3%
3	CC(NC(=O)C1CCC(CNS(=O)(=O)c2ccc3c(c2)C(C)(C)C(=O)N3C)CC1)c1ccccc1 (stereo not drawn)	-12%	-47%[inhibitor]	-7	-0.5	-13	3.0%
4	CCOC(=O)C(=O)N1CCC(C(=O)OCC)CC1	9%	-5%[15.4 µM]	6	-0.4	7.4	x
5	NNC(=O)c1cccc(COc2ccc3c(c2)CCC3)c1	21%	-36%[inhibitor]	-12	0.7	-0.2	1.3%
6	O=C1CCN(CCc2ccccc2)CCN1C(CSc1ccc(Br)cc1)Cc1ccccc1 (stereo not drawn)	x	x	18	1.0	5.0	x
7	COCC(=O)Nc1cc(C)cn(Cc2ccc(F)cc2)c1=O	-4%	u	-4	-0.1	-1.1	-6.8%
8	O=[N+]([O-])c1cc([N+](=O)[O-])c(Oc2c(Cl)cccc2Cl)cc1NN1CCCCC1	-3%	12%	33	-0.7	-5.4	0.4%
9	O=S1(=O)C=C(SCc2ccc(Cl)c(Cl)c2)Nc2ccccc21	u	16%	-5	1.7	-2.0	-3.7%
10	O=C(CN1CCN(C(=O)CNC(=O)c2ccc(-c3ccccc3)cc2)CC1)Nc1ccccc1Cl	x	-3%	-5	-0.1	x	-17%
11	O=C(Oc1ccc(C(=S)N2CCOCC2)cc1Br)c1cc(Cl)ccc1Cl	-7%	-12%	7	-0.4	-1.3	-0.2%
12	COP(=O)(CN(Cc1ccccc1)C(=S)Nc1c(C)cccc1C)OC	17%	-12%[15.4 µM]	1	-0.1	-5.0	x
13	COc1ccc(N2CCCn3c2nc2c3c(=O)n(CCc3ccccc3)c(=O)n2C)cc1	-1%	4%	-1	2.0	-0.6	-2.9%
14	COc1ccc(C2CC(c3ccccc3)=NN2C(=O)CSc2ncn[nH]2)cc1 (stereo not drawn)	-8%	-45%[inhibitor]	-11	-0.6	7.0	-0.7%
15	COc1ccc(OC)c(-c2cc(C(=O)N/N=C/c3ccc(F)cc3)c3ccccc3n2)c1	-19%	30%[15.4 µM]	6	1.8	x	x
16	O=c1[nH]c2ccc(Cl)cc2c(O)c1Cc1ccccc1	10%	-2%[15.4 µM]	23	-0.3	-1.9	x
17	Cc1ccc(N(C(=O)Cn2nnc(-c3ccc(F)cc3)n2)C(C(=O)NC(C)(C)C)c2ccncc2)cc1 (stereo not drawn)	-19%	17%	6	0.1	0.9	x
18	CNc1nc(-c2ccc3c(c2)CCN3C(=O)c2ccccc2F)c(C)s1	-8%	u	-12	-0.2	-0.9	x
19	CCOP(=O)(c1c(F)c(F)c(F)c(F)c1F)C1(O)CCCCC1 (stereo not drawn)	0%	8%	-6	0.9	2.7	-0.9%
20	COc1ccc(CCC(=O)NCC2CCCCC2)cc1OC	2%	2%	37	1.0	3.4	x
21	COCCCN1CC(=O)N2C(c3cccc(OC)c3OC)c3[nH]c4ccccc4c3C[C@H]2C1=O (stereo partly drawn)	1%	-2%	-13	2.2	2.5	-1.0%
22	N#Cc1cccc(NC(=O)CNC(=O)Cc2ccccc2)c1	-3%	4%[15.4 µM]	-17	-0.4	-1.2	x
23	Cc1cccc2c1-c1sc(C(=O)N3CCN(c4cccc(Cl)c4)CC3)cc1CO2	x	x	21	1.5	x	3.4%
24	COc1ccccc1CNC(=O)CCC1N=C2c3ccccc3N=C(SCC(N)=O)N2C1=O (stereo not drawn)	x	x	8	2.1	x	-17%
25	COCCNC(=O)c1onc(CSc2cc(C)cc(C)c2)c1C(=O)NCCOC	4%	7%	3	0.0	2.3	-2.1%
26	Cc1[nH]c(=O)c(C#N)c(C)c1Br	6%	3%	-2	0.4	6.0	-12%
27	CC(=O)c1ccc(N2CCN(S(=O)(=O)c3cccc4nsnc34)CC2)cc1	-5%	5%[15.4 µM]	14	1.9	1.1	x
28	CCOc1ccccc1CNC(=O)C1CCCN(c2nnc(C)c3c(C)n(-c4ccccc4)nc23)C1 (stereo not drawn)	u	12%	36&0	1.2&1.9	11	3.5%&3.9%
29	CN(C1(C)CCS(=O)(=O)C1)S(=O)(=O)c1ccc2ccccc2c1 (stereo not drawn)	8%	-35%[15.4 µM]	-2	1.0	x	x
30	Cc1cc(C(C)(C)C)c(O)c(C)c1CC1=NCCN1	4%	x	-8	0.1	u	-0.3%
31	O=C(CCCCCn1c(=O)[nH]c2ccsc2c1=O)NCc1ccc(F)cc1	-4%	2%[15.4 µM]	10	0.6	-0.5	u
32	CCOC(=O)C(Cc1ccc(OC)c([N+](=O)[O-])c1)NC(=O)CCC(=O)Nc1ccc(C)cc1 (stereo not drawn)	2%	8%[15.4 µM]	26	-0.5	-2.1	-3.3%
33	COc1ccc(S(=O)(=O)N(C)CC(=O)Nc2ccccc2C(F)(F)F)cc1OC	-1%	-4%	5	-0.3	3.1	1.3%
34	CC1CC(C)CN(C(=O)COC(=O)c2ccc3c(c2)OCCO3)C1 (stereo not drawn)	u	23%	-9	0.1	x	x
35	Cc1cc(C)n(-c2nc3ccccc3nc2N2CCOCC2)n1	12%	-2%	23	-0.6	-1.7	0.2%
36	Cc1c(NC(=O)c2ccc(-c3cccc([N+](=O)[O-])c3)o2)c(=O)n(-c2ccccc2)n1C	0%	-1%	-8	1.1	-0.8	x
37	Cc1c(NC(=O)Nc2cccc(C#N)c2)c(=O)n(-c2ccccc2)n1C	7%	-29%	x	x	-4.1	0.9%
38	CC(C)(C)NS(=O)(=O)c1ccc(OCC(=O)NCc2ccco2)cc1	15%	-2%[15.4 µM]	23	-1.4	2.2	x
39	O=C(NCc1ccccc1Cl)c1ccc2c(c1)ncn2-c1cccc(F)c1	x	x	3	0.5	x	-3.0%
40	CC1CCCCN1C(=O)CSc1nnc(-c2ccco2)o1 (stereo not drawn)	7%	-4%[15.4 µM]	-5	0.7	-1.1	x
41	CCOC(=O)N1CCN(S(=O)(=O)c2ccc(F)c(C(=O)Nc3cccc(Cl)c3C)c2)CC1	-17%	14%	-10	2.2	6.6	-3.8%
42	COc1ccc(NC(=O)CN(c2cc(C)cc(C)c2)S(=O)(=O)c2c(C)noc2C)cc1Cl	x	x	22	-0.4	x	-2.2%
43	COc1ccc(CC(=O)Nc2nc(-c3ccccc3)c(C(C)=O)s2)cc1OC	19%	20%	1	2.3	-7.0	x
44	Cc1noc(C)c1COc1ccc(C(=O)O)cc1	2%	-1%	-20	0.3	-1.1	x
45	C[C@]12C(=O)N(c3ccc(Cl)cc3)C(=O)N1[C@H]1c3ccccc3OC[C@@H]1[C@H]2c1ccccc1	9%	3%	41	0.8	2.2	0.1%
46	Cc1ccc(Oc2ccc3c(c2)C(=O)N(c2cccc4cccnc24)C3=O)cc1	u	12%	-8	-0.8	3.2	-4.1%
47	COc1ccc2c(CCNC(=O)c3ccco3)c[nH]c2c1	-10%	-13%	-13	-0.8	0.0	1.2%
48	Oc1ccc(Br)cc1CN1CCCCCCC1	0%	0%	-1	0.7	4.8	-0.7%

Reprinted at random: 4 entries already listed.
item	compound	gsp antagonist	gsp agonist	TRPML1 inh	TRPML1 agonist	Menin-MLL FL inh	ClpP mod
43	COc1ccc(CC(=O)Nc2nc(-c3ccccc3)c(C(C)=O)s2)cc1OC	19%	20%	1	2.3	-7.0	x
41	CCOC(=O)N1CCN(S(=O)(=O)c2ccc(F)c(C(=O)Nc3cccc(Cl)c3C)c2)CC1	-17%	14%	-10	2.2	6.6	-3.8%
45	C[C@]12C(=O)N(c3ccc(Cl)cc3)C(=O)N1[C@H]1c3ccccc3OC[C@@H]1[C@H]2c1ccccc1	9%	3%	41	0.8	2.2	0.1%
47	COc1ccc2c(CCNC(=O)c3ccco3)c[nH]c2c1	-10%	-13%	-13	-0.8	0.0	1.2%

(listing goes on)
item	compound	gsp antagonist	gsp agonist	TRPML1 inh	TRPML1 agonist	Menin-MLL FL inh	ClpP mod
49	CC(C)c1onc(C(=O)N2CCCCCC2)c1[N+](=O)[O-]	10%	3%	-7	0.1	2.0	x
50	O=C(NC1CCCCC1)c1ccc(Cn2c(SCc3ccccc3F)nc3cccnc32)cc1	x	x	-5	3.8	x	4.4%
51	N#C/C(=C\c1c(N2CCCCCC2)nc2ccccn2c1=O)C(N)=O	-13%	34%[15.4 µM]	8	-1.0	1.6	-0.4%
52	O=C(NNS(=O)(=O)Cc1ccccc1)c1ccc([N+](=O)[O-])cc1	6%	-19%	-1	-0.3	1.5	-0.9%
53	Cc1ccc(OCC(=O)Nc2nnc(SCc3cc(=O)c4ccccc4[nH]3)s2)cc1	x	x	6	1.7	x	2.3%
54	COc1ccc(-c2csc(Cc3nnc4n3CCCCC4)n2)cc1	-10%	-1%	-2	1.6	3.7	-1.5%
55	COc1cccc(-c2cnc(NCc3ccccc3Cl)n2C)c1	x	x	-8	1.4	x	-26%
56	CCc1nnc(NC(=O)Cc2cccs2)s1	3%	-1%[15.4 µM]	5	-0.4	2.5	x
57	COc1ccccc1N=Nc1c(C)[nH]n(-c2ccccc2)c1=O	8%	-1%	20	0.4	-3.5	-3.5%
58	C(=N\Nc1cc(N2CCCCC2)ncn1)/c1ccco1	0%	3%	-7	1.5	-0.1	-0.9%
59	CCCCOc1ccc(N2C(=O)C(C)CNC2=S)cc1 (stereo not drawn)	4%	1%	28	0.4	x	-1.9%
60	COc1ccc(-c2cc(C(F)(F)F)n3nc(C(N)=O)cc3n2)cc1	x	-15%	3	-0.5	x	-7.6%
61	CN(CC(=O)Nc1ccccc1C(F)(F)F)C(=O)Cc1ccccc1F	20%	10%[15.4 µM]	-15	-0.6	1.3	x
62	O=C(NCc1ccco1)c1ccc2c(c1)N(Cc1ccc(Cl)cc1)C(=O)c1ccccc1S2	x	x	75	3.9	x	-4.3%

Assay outcomes from PubChem BioAssay.
